High-throughput results deposited in PubChem BioAssay by National Center for Advancing Translational Sciences (NCATS).
gsp ag: activates gsp, the McCune-Albright syndrome mutation; 340,000 compounds, 0.13% hits; gsp mutant cells, cAMP HTRF, 30 min; control for the full effect not named in the record; Potency, µM (titrated, usually from 76.9 µM), inactives show top-dose activation (cAMP increase), actives largely listed as activators; AID 624287; active = well fitted activation curve with a large enough effect; inconclusive = small, poorly fitted or top-dose-only effect, or another doubt; inactive = no such curve, though single readings can be large or run the other way; cell line not stated here;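 further: phosphodiesterase inhibitor Ro 20-1724 added with compounds to block cAMP breakdown; potency means the concentration at half of the fitted maximal effect; nearly all actives have a fitted effect of over 60% in size; about a fifth of the inactives were tested at one dose only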
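Cells in DMEM/10% FBS with G418 were pretreated with compounds in DMSO plus […] (300 uM stock) for 30 min at 37C. cAMP was measured by HTRF (cAMP-d2 plus anti-cAMP antibody-K) after 30 min at room temperature.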
CtBP-E1A inh: inhibitors of CtBP/E1A interaction. AlphaScreen GST-E1A/His-CtBP binding, 1536-well; active compounds read low; control for the full effect not named in the record. activity change, % (no concentration beside the values). 340,000 compounds, 0.49% hits; in the data active means activity change below about -65%; inconclusive means about -30% to -65%; inactive means above about -30%; further: on the % scale 0 is the no-effect control and ±100 the full control effect
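Protein mix (5X: 125 nM each GST-E1A, His-CtBP) was incubated with pinned compound 2 h at 37 deg C in dark, in 50 mM Tris pH 8.0 buffer with 300 mM NaCl. Glutathione donor and nickel acceptor beads followed; AlphaScreen signal read after 1 h.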
D2 agonist: activates the human D2 dopamine receptor; P14416; 360,000 compounds, 0.084% hits; DiscoveRx PathHunter D2 beta-arrestin, luminescence, 90 min; 100% = 57 uM dopamine signal; AID 624465; activation, % (test concentration not listed); in the data active = activation above about 40%; inconclusive = about 15% to 40%; inactive = below about 15%; further: compound concentration not given in the record; the text of the record calls up to 30% inactive
Target sequence (P14416 whole entry, looked up): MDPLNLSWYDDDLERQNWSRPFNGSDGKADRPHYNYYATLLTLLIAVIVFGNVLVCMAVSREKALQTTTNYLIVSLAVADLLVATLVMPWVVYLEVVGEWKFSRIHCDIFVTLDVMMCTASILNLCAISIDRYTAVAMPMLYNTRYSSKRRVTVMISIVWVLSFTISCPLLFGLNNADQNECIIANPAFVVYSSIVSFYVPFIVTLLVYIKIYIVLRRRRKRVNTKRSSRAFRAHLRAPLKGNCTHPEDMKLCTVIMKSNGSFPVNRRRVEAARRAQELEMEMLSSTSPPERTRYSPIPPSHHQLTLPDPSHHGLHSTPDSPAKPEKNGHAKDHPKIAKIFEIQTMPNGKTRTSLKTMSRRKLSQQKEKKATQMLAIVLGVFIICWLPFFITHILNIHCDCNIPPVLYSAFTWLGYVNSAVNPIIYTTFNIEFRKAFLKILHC
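Agonist mode: compounds alone added to overnight-plated D2 PathHunter cells for 90 min at 37 C, with 57 uM final dopamine (EC100) defining full response. Beta-arrestin recruitment detected by chemiluminescent reagent, read after 1 h at ambient temperature.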
D2 potentiator: human D2 receptor positive allosteric modulation | P14416 | DiscoveRx D2 beta-arrestin cells, luminescence, 90 min; 100% = 57 uM dopamine signal | potentiation, % (test concentration not listed) | 360,000 compounds, 0.23% hits; active = potentiation of 50% or more; inconclusive = 30% to 50%; inactive = 30% or less;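 further: compound concentration not given in the record; tested on top of an EC20 dose of dopamine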
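PathHunter D2 cells, attached overnight at 37 deg C, received compound in DMSO plus dopamine at EC20 (50 nM final) for 90 min at 37 deg C. Beta-arrestin recruitment was read as luminescence after 1 h with detection reagent at ambient temperature.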
gsp antagonist: gsp mutant antagonism | 340,000 compounds, 0.4% hits | gsp-mutant cells, cAMP HTRF, 30 min; control for the full effect not named in the record | Potency, µM (series often up to 76.9 µM), for inactives: at the highest dose activity change, negative = inhibition, actives largely listed as inhibitors; active = falling curve of any shape with a large fitted effect; inconclusive = falling curve, mostly with a smaller effect; inactive = flat or rising curve; cell line not stated here;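 further: intracellular cAMP measured with PDE inhibitor Ro 20-1724 present during compound exposure; potency means the concentration at half of the fitted maximal effect; on the % scale 0 is the no-effect control and ±100 the full control effect; nearly all actives have a fitted effect of over 65% in size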
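Cells in G418 medium, seeded 16-24 h, 37C; buffer exchange to DPBS + 1 mM CaCl2, 0.5 mM MgCl2, 0.05% BSA; cpds in DMSO + […] (300 uM stock), 30 min 37C; HTRF cAMP detection.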
Six1-Eya2 blk: inhibitors of human Six1/Eya2 interaction | Q15475+O00167 | AlphaScreen GST-Six1/His-Eya2 binding, biochemical; active compounds read low; control for the full effect not named in the record | activity change, % (no concentration beside the values) | 360,000 compounds, 0.56% hits | AID 651725; in the data active = activity change below about -65%; inconclusive = about -30% to -65%; inactive = above about -30%; further: on the % scale 0 is the no-effect control and ±100 the full control effect
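GST-Six1 + His-Eya2 (5X stock: 250/500 nM); Tris pH 8.0, 300 mM NaCl, 0.05% BSA, 0.02% Tween 20; GSH donor/Ni acceptor beads; 1 h 37 °C dark; AlphaScreen readout.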
Active calls of the source: *; ? = inconclusive; . = no result given; [ ] = dose if it differs, or a comment. The order is random. About 1.4% of those tested had a hit in this group.

SMILES | gsp ag | CtBP-E1A inh | D2 agonist | D2 potentiator | gsp antagonist | Six1-Eya2 blk
CC1(C)CC(=O)C=C(OC(=O)c2ccc(Cl)cc2)C1 | -31% | 7 | -0.4 | 25 | -2% | 7
O=C(c1cc2c(s1)-c1ccccc1OC2)N1CCN(c2ccccc2)CC1 | ? | -2 | -5.1 | -4 | -1% | -8
O=C(N/N=C/c1c[nH]c2ccc(Br)cc12)c1ccn(Cc2ccc(Cl)cc2)n1 | -6% | -7 | -2.3 | 9 | -22% | -15
COC(=O)c1ccc2c(c1)N(Cc1nc(-c3ccc(Cl)cc3)oc1C)C(=O)C1CCCN21 (stereo not given) | -41%[inhibitor] | -4 | -1.5 | 1 | -22% | 4
CSc1nc(Oc2ccc(C)cc2)cc(C(F)(F)F)n1 | 0% | 20 | -1.4 | -2 | 0% | 52
CCOC(=O)/N=C(/NC(=O)Nc1ccc(C(=O)OCC)cc1)OC | 26% | 0 | -2.7 | -28 | 4% | 4
Cc1cc(C)n(-c2nc3ccccc3n3nnnc23)n1 | 10% | 2 | -0.4 | -2 | 3% | -8
CC1CCC2(CC1)NC(=O)N(CC(=O)Nc1cccnc1Cl)C2=O (stereo not given) | 18% | -1 | 4.0 | -1 | -6% | 8
COc1ccc(C23CC4CC(CC(C(=O)O)(C4)C2)C3)c(F)c1 | ? | 2 | -2.4 | -15 | -9% | 2
COCCCNS(=O)(=O)c1ccc(SC)cc1 | -19% | -2 | -0.8 | 2 | -2% | 0
CSc1ccc(/C=C/C(=O)NC23CC4CC(CC(C4)C2)C3)cc1 | 0%[15.4 µM] | -16 | -3.7 | -9 | 0% | 3
CN(C)c1ccc(C=C(c2nnnn2-c2ccccc2)c2nnnn2-c2ccccc2)cc1 | -25% | 0 | -3.0 | -20 | -32% | -3

In a second layout: 2 of the compounds above
Structure,gsp ag,CtBP-E1A inh,D2 agonist,D2 potentiator,gsp antagonist,Six1-Eya2 blk
CSc1ccc(/C=C/C(=O)NC23CC4CC(CC(C4)C2)C3)cc1,0%[15.4 µM],-16,-3.7,-9,0%,3
O=C(N/N=C/c1c[nH]c2ccc(Br)cc12)c1ccn(Cc2ccc(Cl)cc2)n1,-6%,-7,-2.3,9,-22%,-15

The listing continues:
SMILES | gsp ag | CtBP-E1A inh | D2 agonist | D2 potentiator | gsp antagonist | Six1-Eya2 blk
CCCCCCn1c(N2CCN(c3cccc(Cl)c3)CC2)nc2c1c(=O)[nH]c(=O)n2C | ? | 1 | -5.4 | -17 | -3% | -10
COc1ccc(C2CCCN2C(=S)Nc2ccc(C)cc2C)cc1OC (stereo not given) | 20% | 0 | 0.0 | 3 | 0% | 28
Cc1ccc(S(=O)(=O)NCC(=O)OCC(=O)NC(=O)c2cccn2C)cc1 | -50%[inhibitor] | -2 | 2.3 | 0 | -9% | 0
NCCCC[C@@H]1NC(=O)c2cc([N+](=O)[O-])cc(F)c2NCCCC[C@@H](C(N)=O)NC(=O)CNC1=O | . | 2 | -2.7 | -3 | 13% | 6
CCOC(=O)C1CCN(S(=O)(=O)c2ccc(OCC)cc2)CC1 | -74%[inhibitor] | 5 | 1.9 | 20 | -17% | 2
Cc1cc(NC(=O)CCC(=O)N(CC(=O)NCC2CCCO2)c2cccc(F)c2)no1 (stereo not given) | -7%[15.4 µM] | 23 | 2.3 | -9 | 11% | 15
COc1ccccc1-c1ccc(SCc2cccc(F)c2)nn1 | -3%[15.4 µM] | 21 | -3.4 | -8 | -11% | 15
CCOc1ccccc1NC(=O)NCc1ccco1 | -39%[inhibitor] | -5 | -6.3 | -9 | 5% | -2
COc1cccc(-c2c(C(=O)N/N=C(\C)c3cccs3)nnn2-c2nonc2N)c1 | -35%[inhibitor] | . | -1.6 | -6 | -13% | 0
COc1ccc(N(CC(=O)Nc2cccc(C)c2)S(=O)(=O)c2c(C)n[nH]c2C)cc1 | 15% | -11 | -3.0 | -10 | -22% | -3
Cc1cc(C)c(Cn2ncn(-c3ccc(Br)cc3)c2=O)c(C)c1 | -17% | 0 | 2.0 | 5 | -6% | -1
CC(C)C(NC(=O)c1ccccc1F)C(=O)NCc1ccc(S(=O)(=O)N2CCOCC2)cc1 (stereo not given) | -4%[15.4 µM] | 0 | 2.5 | -5 | -2% | 3
Cn1c(Oc2ccccc2)c(C=O)c2ccccc21 | -55% | 9 | -2.8 | 11 | -10% | 8
O=[N+]([O-])c1ccc(C(O)CN2CCN(C/C=C/c3ccccc3)CC2)cc1 (stereo not given) | -9%[15.4 µM] | -4 | -0.3 | -3 | 10% | 9
S=C(NCc1ccccc1)NCc1cccc(CNC(=S)NCc2ccccc2)c1 | -8% | ? | 2.8 | 3 | 0% | -13
O=C(COC(=O)CC1CCS(=O)(=O)C1)Nc1ccc(F)cc1 (stereo not given) | -2% | . | -0.4 | 0 | 8% | -2
N#Cc1ccccc1OCc1cccc(S(=O)(=O)N2CCOCC2)c1 | -35%[inhibitor] | -5 | -4.1 | -1 | -10% | -1
CC(NS(=O)(=O)c1ccc(OCC(=O)NCc2ccncc2)cc1)c1ccccc1 (stereo not given) | -5%[15.4 µM] | -4 | -0.6 | -7 | 5% | 1
O=C(Cn1cnc2ccccc2c1=O)Nc1cccc(S(=O)(=O)N2CCCCC2)c1 | ? | -10 | -6.7 | -11 | -10% | -4
COCC(=O)Nc1nc(-c2ccc(-c3ccccc3)cc2)cs1 | 4%[15.4 µM] | -6 | 6.6 | -2 | -13% | -1
CN(C(=O)c1ccccc1OC1CCN(S(C)(=O)=O)CC1)C1CCOC1 (stereo not given) | -11% | . | -0.2 | -14 | -9% | 11
CCN(CC)S(=O)(=O)c1ccc(N2CCCC2)c(NS(=O)(=O)c2ccc(F)cc2)c1 | 25µM* | 3 | 1.0 | 9 | -4% | -4
Cc1cccc(CN2[C@H](COC(=O)Nc3ccccc3)C=CS2(=O)=O)c1 | . | 2 | -1.0 | -3 | . | 0
O=C(O)c1c2c(nc3ccccc13)/C(=C/c1ccc(O)cc1)CCC2 | -1% | . | 2.4 | -6 | 4% | -12

Reprinted at random: 5 entries already listed.
SMILES | gsp ag | CtBP-E1A inh | D2 agonist | D2 potentiator | gsp antagonist | Six1-Eya2 blk
Cn1c(Oc2ccccc2)c(C=O)c2ccccc21 | -55% | 9 | -2.8 | 11 | -10% | 8
Cc1cccc(CN2[C@H](COC(=O)Nc3ccccc3)C=CS2(=O)=O)c1 | . | 2 | -1.0 | -3 | . | 0
CCOC(=O)C1CCN(S(=O)(=O)c2ccc(OCC)cc2)CC1 | -74%[inhibitor] | 5 | 1.9 | 20 | -17% | 2
O=C(N/N=C/c1c[nH]c2ccc(Br)cc12)c1ccn(Cc2ccc(Cl)cc2)n1 | -6% | -7 | -2.3 | 9 | -22% | -15
CC(C)C(NC(=O)c1ccccc1F)C(=O)NCc1ccc(S(=O)(=O)N2CCOCC2)cc1 (stereo not given) | -4%[15.4 µM] | 0 | 2.5 | -5 | -2% | 3

The main list resumes, starting three compounds before the break.
SMILES | gsp ag | CtBP-E1A inh | D2 agonist | D2 potentiator | gsp antagonist | Six1-Eya2 blk
CCN(CC)S(=O)(=O)c1ccc(N2CCCC2)c(NS(=O)(=O)c2ccc(F)cc2)c1 | 25µM* | 3 | 1.0 | 9 | -4% | -4
Cc1cccc(CN2[C@H](COC(=O)Nc3ccccc3)C=CS2(=O)=O)c1 | . | 2 | -1.0 | -3 | . | 0
O=C(O)c1c2c(nc3ccccc13)/C(=C/c1ccc(O)cc1)CCC2 | -1% | . | 2.4 | -6 | 4% | -12
O=C(COc1ccc2ccccc2c1)N1CCN(C(=O)c2ccc([N+](=O)[O-])cc2)CC1 | -3%[15.4 µM] | 0 | 0.9 | 6 | -18% | -9
CCc1cc2c(=O)[nH]c(COC)nc2s1 | -6%[15.4 µM] | -15 | -5.8 | -6 | 4% | 4
Cc1nn(-c2ccccc2)c2c1C(=O)N(Cc1ccccc1)C(=O)C(C)(C)C2 | 20% | 3 | -4.6 | -44 | -24% | 23
COc1cc(/C=N/NC(N)=S)ccc1OCC(=O)Nc1ccc(C)c(C)c1 | 11% | -10 | 0.2 | 2 | 1% | 0
CCOC(=O)c1c(NC(=O)c2nn(CC)cc2Br)c(C#N)cn1-c1ccccc1 | -15% | 8 | -2.9 | -4 | 7% | -3
COc1ccc(/C=N/NC(=O)c2ccn[nH]2)cc1COc1ccc(Cl)cc1 | -10% | -3 | 3.1 | -12 | -13% | -11
COc1ccc(C)cc1NC(=O)CNC(c1ccccc1)c1ccc(C)cc1 (stereo not given) | 36% | 2 | -0.5 | -11 | 17% | -6
COc1ccc(S(=O)(=O)N2CCC(C(=O)NCC3CCCCC3)CC2)cc1 | -9%[15.4 µM] | -9 | -0.5 | 4 | . | 4
O=C1C2C3c4ccccc4C(c4ccccc43)C2C(=O)N1c1cccc2cccnc12 (stereo not given) | -46%[inhibitor] | -2 | -1.6 | 4 | -26% | 7
COc1ccc(C2=NOC(C(=O)Nc3c(C)n(C)n(-c4ccccc4)c3=O)C2)cc1 (stereo not given) | -7% | 3 | -3.3 | -3 | 6% | -1
COc1ccc(CCNC(=O)CCCCC(=O)NCCc2ccc(OC)cc2)cc1 | 9% | 13 | -1.3 | -1 | -1% | 0
O=C(c1cc2ccccc2o1)N1CC=C(c2ccccc2)CC1 | 6%[15.4 µM] | 5 | -20 | -12 | -4% | -1
CCC(C)NS(=O)(=O)c1ccc(NC(=O)c2ccc([N+](=O)[O-])cc2Cl)cc1 (stereo not given) | 1%[15.4 µM] | 0 | -3.5 | -3 | 15% | 7
CCN(CC(=O)Nc1ccc(NC(C)=O)cc1)C(=O)C1(c2ccc(Cl)cc2)CCC1 | 28% | 0 | -2.4 | -17 | . | 4
Cc1ccc(C(=O)NCCc2nnc3ccc(SCC(=O)Nc4c(C)cc(C)cc4C)nn23)cc1 | 20% | 7 | -7.6 | -16 | -13% | -8
c1ccc(-c2noc(CSc3nnnn3C3CCCCC3)n2)cc1 | 8% | 14 | -1.2 | -2 | -8% | 12
COc1ccc(CCNC2CC(=O)N(N(C)C)C2=O)cc1OC (stereo not given) | -9% | -1 | -0.6 | -9 | 10% | 2
O=C(CSc1nc(-c2ccco2)cc(C(F)(F)F)n1)N1CCSCC1 | -12% | -9 | 0.2 | 4 | -16% | -12
N=c1c[n+](N2CCOCC2)[n-]o1 | . | -5 | 5.0 | -1 | 3% | 6
CSCC(=O)NS(=O)(=O)c1ccc(C)cc1 | 7% | 7 | -4.3 | -1 | 4% | 6
